Vaccinia mCherry: qHTS for Stage-Specific Inhibitors of Vaccinia Orthopoxvirus: mCherry Reporter Primary qHTS. Vaccinia virus mCherry reporter infection, fluorescence; about a quarter of the inactives have no number. Potency, µM (top dose mostly 36.5 µM), for inactives: at the top dose activity change, negative = inhibition, most hits filed as inhibitors. actives 0.63% (n = 310,000); active = well fitted inhibition curve with a large enough effect; inconclusive = small, poorly fitted or top-dose-only effect; inactive = no such curve, though single readings can be large or run the other way; tested in A549 cells; further: nearly all actives have a fitted effect of over 35% in size; inactives centre near -10
Vaccinia Venus: qHTS for Stage-Specific Inhibitors of Vaccinia Orthopoxvirus: Venus Reporter Primary qHTS; Potency, µM (top dose mostly 36.5 µM), inactives show at the highest dose activity change, negative = inhibition, most hits filed as inhibitors; actives 0.46% (n = 330,000); AID 720580, 2013; Vaccinia virus Venus reporter expression, fluorescence; active means well fitted inhibition curve with a large enough effect; inconclusive means small, poorly fitted or top-dose-only effect; inactive means no such curve, though single readings can be large or run the other way; tested in A549 cells; further: nearly all actives have a fitted effect of over 30% in size; inactives centre near -10
Starred values were filed as active, the others as inactive; i = inactive; ? = inconclusive; nt = no result given; [ ] = dose if it differs, or a comment. On the % scale 0 is the no-effect control and ±100 the full control effect; potency means the concentration at half of the fitted maximal effect.

Sample of the layout (five entries):
SMILES	Vaccinia mCherry	Vaccinia Venus
COc1ccc(NCc2ccc(OC)c(Cn3ccnc3)c2)c(OC)c1	-21%	-11%
NP(=O)(OCCCc1ccccc1)c1ccccc1 (configuration not stated)	i	-2%
COc1cc(NC(=O)CSc2nnc3ccc(-c4cccnc4)nn23)cc(OC)c1	-9%	-2%
O=C(NN=Cc1ccc2c(c1)OCO2)c1ccc([N+](=O)[O-])cc1	28%	3%
CC(C)(C)N1C(=O)c2ccc(C(=O)O)cc2C1=O	-14%[1.46 µM]	-4%

The whole of this part (from the top)
SMILES	Vaccinia mCherry	Vaccinia Venus
COc1ccc(NCc2ccc(OC)c(Cn3ccnc3)c2)c(OC)c1	-21%	-11%
NP(=O)(OCCCc1ccccc1)c1ccccc1 (configuration not stated)	i	-2%
COc1cc(NC(=O)CSc2nnc3ccc(-c4cccnc4)nn23)cc(OC)c1	-9%	-2%
O=C(NN=Cc1ccc2c(c1)OCO2)c1ccc([N+](=O)[O-])cc1	28%	3%
CC(C)(C)N1C(=O)c2ccc(C(=O)O)cc2C1=O	-14%[1.46 µM]	-4%
Cc1cc(C(=O)OCC(=O)Nc2ccc(F)cc2)c(C)o1	-6%	-5%
CCN1CCN(c2ncc3c(n2)CC(c2ccccc2O)CC3=O)CC1 (configuration not stated)	i	-8%
COc1ccc(CC(=O)N2CCN(c3ccc(F)cc3)CC2)cc1	i	-7%
O=C(CS(=O)(=O)c1ccc(F)cc1)N1CCOCC1	-14%	-2%
CC(=O)N(c1ccccc1)C1CCCC1	-16%	-7%
Cc1ccccc1Oc1ccc2c(c1)[C@@H]1C[C@H](N(C)C(=O)Nc3cc(Cl)cc(Cl)c3)[C@H]([C@H](C)O)C(=O)N1CC2	i	0%
O=C(C1CCCN(S(=O)(=O)c2cccs2)C1)N1CCC(N2CCCCC2)CC1 (configuration not stated)	20%	-9%
C/C(=N\Nc1ccc(S(N)(=O)=O)cc1[N+](=O)[O-])c1ccccc1O	?	-2%
CC(=O)N1c2ccc(S(=O)(=O)NCC3CCC(C(=O)NC4CCCCC4C)CC3)cc2CC1C (configuration not stated)	-30%	-15%
COc1cccc(C(=O)O/N=C(\N)Cc2ccc(Cl)cc2)c1	i	-6%
COCCNC(=O)CNC(=O)c1nn(-c2ccc(OC)c(Cl)c2)c(=O)c2ccccc12	-11%	-7%
O=C(CC1N=C2c3ccccc3N=C(SCC(=O)Nc3ccc(F)cc3)N2C1=O)NCc1ccco1 (configuration not stated)	-6%	-7%
Cc1cccc(N2C(=O)CC(Sc3nnc(C)s3)C2=O)c1 (configuration not stated)	nt	1%
CCOc1cc(C(=O)Nc2ccc(C)cc2C)ccc1OCC(=O)N1CCCCC1	-5%	-8%
CC(NS(=O)(=O)c1ccc(Br)cc1)c1ccccc1 (configuration not stated)	i	-13%
CCn1c2ccccc2c2nnc(SCN3C(=O)c4ccccc4C3=O)nc21	i	-14%
COc1cc(C(=O)NCc2cccnc2)ccc1OCC(=O)Nc1cccc(C(F)(F)F)c1	-24%	-26%
COCCNC(=O)C1(C)Cc2c(-c3cccc(C(F)(F)F)c3)ccnc2O1 (configuration not stated)	-29%	-28%
COc1cc(OC)c(C(=O)NNC(=S)NC2CCCCC2)cc1OC	i	-3%
Cc1nnc2n1N=C(c1ccc3c(c1)NC(=O)CO3)CS2	-12%	-24%

Later entries.
SMILES	Vaccinia mCherry	Vaccinia Venus
O=S(=O)(c1cccc(-n2cnnn2)c1)N1CCOCC1	-1%	4%
Cc1ccc(S(=O)(=O)c2c(N)n(-c3ccccc3)c3nc4ccccc4nc23)cc1	i	-6%
COc1ccc(NC(=O)C2=C(C)Nc3ncnn3C2c2ccccn2)cc1 (configuration not stated)	13%	15%
CN(Cc1ccccc1)C(=O)COc1ccc(-c2nnco2)cc1	i	-17%
CC(C)(C)[C@H]1COC(=O)[C@H](Cc2ccc(F)cc2)CC/C=C/C[C@@H](CC(=O)N[C@H](CO)Cc2ccccc2)C(=O)N1	?	-28%
CCCc1ccc(-c2cc(C(=O)Nc3ccc([N+](=O)[O-])cn3)c3ccccc3n2)cc1	-7%	-12%
COCCn1nnnc1C(c1ccc(OC)c(OC)c1)N1CCc2ccccc21 (configuration not stated)	i	-7%
O=C(CCN1CCN(S(=O)(=O)c2cccc([N+](=O)[O-])c2)CC1)Nc1ccccc1F	-3%	5%
CC(C)OC(=O)C1C2c3ccccc3C(c3ccccc32)C1C(=O)O (configuration not stated)	i	-14%
COC(=O)c1ccc(N2CCOCC2)c(NC(=O)c2ccc(Br)o2)c1	i	-11%
Cc1ccccc1OCCC(=O)Nc1ccccc1C(=O)N1CCCCC1	-2%	-13%
COc1ccc(OC)c(N/C(C)=C/C(=O)c2ccc(Br)cc2)c1	i	1%
COc1ccc2oc(C(=O)OCC(=O)N3CC(C)CC(C)C3)c(C)c2c1 (configuration not stated)	-16%	-14%
CC1CCCCN1CCCNc1ccc(C(CC(N)=O)NC(=O)c2ccccc2)cc1[N+](=O)[O-] (configuration not stated)	i	-3%
COc1ccc(C2=Nn3c(nnc3-c3ccncc3)SC2)cc1OC	-4%	-16%
CCOc1ccc(Br)cc1S(=O)(=O)Nc1cccc(S(=O)(=O)N(CC)CC)c1	-22%	-23%
COc1ccccc1NC(=O)CN(C)S(=O)(=O)c1ccc2c(c1)c(=O)n(C)c(=O)n2C	7%	3%
CCOc1ccc(CCNC(=O)c2ccc(Cn3c(=O)c4cccn4c4cccnc43)cc2)cc1	?	?
COc1ccc(CNC(=O)CN2CCSc3ccccc32)c(OC)c1	-9%	-13%
O=C(CCSc1ccccc1)NCC1CCCO1 (configuration not stated)	-9%	-6%
CN(C(=O)COC(=O)c1cccnc1Nc1ccccc1F)C1CCS(=O)(=O)C1 (configuration not stated)	i	-4%
COc1ccccc1NS(=O)(=O)c1cccc(C(=O)NCc2ccncc2)c1	-18%	-17%
Cc1ccc2cc(-c3noc(C4CCCCC4)n3)c(=O)[nH]c2c1	-4%	-9%
O=C(c1cc(C2CC2)on1)N1CCN(c2ccc(F)cc2)CC1	-14%	-10%
Cc1ccc(OCC(=O)N(Cc2ccc(N(C)C)cc2)CC2CCCO2)cc1C (configuration not stated)	-13%	-5%

Other entries
SMILES	Vaccinia mCherry	Vaccinia Venus
C[C@@H]1O[C@@H](Oc2c(-c3cc(O)c(O)c(O)c3)oc3cc(O)cc(O)c3c2=O)[C@H](O)[C@H](O)[C@H]1O	-25%	-2%
Clc1ccc(C2=NOC(c3nnc(-c4ccccc4)o3)C2)cc1 (configuration not stated)	7%	2%
S=C1NC2(CCCC2)Nc2ccccc21	-18%	-1%
Cc1ccc(N/C(N)=N/c2nc3c(c(=O)[nH]2)CCCC3)c(C)c1	-2%	-9%
Cc1ccc(Cl)cc1NC(=O)C1CCCN(S(=O)(=O)c2c(C)noc2/C=C/N(C)C)C1 (configuration not stated)	-3%	-5%
CCCC1(CCC)C(=O)NC(=Nc2ccccc2)NC1=O	i	0%
O=C(NCCS(=O)(=O)N1CCC2(CC1)OCCO2)c1ccc(F)cc1	-9%	3%
O=C1NC[C@H](Cc2ccccc2)N(C[C@H]2CCCN2C[C@H](Cc2ccccc2)N2C[C@H](Cc3ccccc3)N(CCc3ccccc3)C(=O)C2=O)C1=O	?	?
CCOC(=O)C1CCCN(Cc2cc(=O)oc3cc(C)c(C)cc23)C1 (configuration not stated)	7%	4%
CC(C)C[C@H](NC(=O)N1CCn2c1nc1ccccc12)C(=O)NCc1ccco1	-20%	-16%
Cc1c(CBr)[n+](=O)c2c(n1[O-])C(Br)CCC2Br (configuration not stated)	4%	1%
O=C(CSc1n[nH]c(-c2ccc(S(=O)(=O)N3CCCCC3)cc2)n1)Nc1nccs1	-5%	-14%
S=c1[nH]nc(COc2ccccc2)n1Cc1ccccc1	-14%	-12%
Cc1cccc(NC(=S)NCCCN2CCOCC2)c1	-13%	-25%
Cc1ccc(/C=N/NC(=O)CSc2nc3ccccc3c(=O)n2-c2ccccc2)s1	-10%	-3%
c1ccc(N2CCN(c3ccc4nncn4n3)CC2)nc1	i	-13%
O=C(C1=C[C@H](c2ccc(C(F)(F)F)cc2)C[C@H](OCCCCO)O1)N1CCN(Cc2ccc3c(c2)OCO3)CC1	-14%	?
Cc1ccn2c(CC(C)(C)C)c(-c3ccc(F)cc3)nc2c1	?	-10%
CC(C)(C)c1ccc(OCc2ccc(C(=O)N/N=C/c3ccc(O)c(O)c3)cc2)cc1	-22%	-11%
CCCC(=O)C1=C(N(C)c2ccccc2)CC(C)(C)CC1=O	-14%	-15%
CCN(C(=O)CSc1nnc2nc(C)cc(C)n12)c1ccccc1	i	-9%
CCOCC(=O)Nc1cc(OC)c(Cl)cc1OC	-15%	-2%
C/C(=N\NC(=O)CSc1nc(C)cc(C)n1)c1cccs1	i	-11%
CCCCCC(=O)N1C[C@H](O)[C@@H](n2cc(C3CC3)nn2)C[C@@H]1c1ccc(C)cc1	-11%	-4%
CCOC(=O)c1sc(=NC(=O)c2ccc(OC(C)C)cc2)n(C)c1C	-1%	-1%

(further entries)
SMILES	Vaccinia mCherry	Vaccinia Venus
S=C(NCCc1ccccc1)Nc1cccc2cnccc12	-28%	-23%
COc1ccc(/C=C/C(=O)c2ccccc2O)cc1CN1CCOCC1	nt	3%
CCOC(=O)C1=C(C)Nc2ccccc2N=C1NC(=O)Cc1ccc(Cl)c(Cl)c1	3%	-7%
Cc1ccc(S(=O)(=O)N2CCCCC2)cc1NC(=O)CSc1nccn1C	-1%	0%
NC(=O)C[n+]1cccc(C(N)=O)c1	i	-4%
CC(C)OCCCn1c(=O)c2ccccc2n2c(-c3ccccc3)nnc12	-4%	4%
Cc1ccc(-c2ccc(SCC(=O)Nc3cc(C)on3)nn2)cc1	-11%	-7%
O=C(O)c1ccccc1NC(=O)C(c1ccccc1)c1ccccc1	i	-5%
CCCOC(=O)CC1C(=O)NCCN1C(=O)OC(C)(C)C (configuration not stated)	-11%	-5%
CC1Cc2nc(SCC(=O)N3CCOCC3)n(-c3ccccc3)c(=O)c2S1 (configuration not stated)	-13%	2%
CCC(C)NC(=O)CN1C(=O)COc2ccc(S(=O)(=O)N3CCOCC3)cc21 (configuration not stated)	0%	-4%
NS(=O)(=O)c1ccc(NC(=O)CSC2=NC(=O)C(c3ccccc3)C(=O)N2)cc1 (configuration not stated)	-9%	3%
COc1ccc(CCOC(=O)CNC(=O)c2ccc(Cl)cc2Cl)cc1	-13%	-4%
Cc1ccc(N/C(N)=N/c2nc(CSc3nnc(C)s3)cc(=O)[nH]2)c(C)c1	-7%	?
CC(=O)Oc1c(C(=O)c2nnc(C)o2)c(=O)n(C)c2ccccc12	-10%	-26%
CCOC(=O)Cn1nnnc1CN(Cc1ccc(OC)cc1)Cc1cc2cc(CC)ccc2[nH]c1=O	i	-14%
CCn1c(CCNC(=O)c2ccc(C)cc2)nnc1SCc1ccc(Cl)c(Cl)c1	-10%	?
Cc1ccccc1S(=O)(=O)Cc1ccc(C(=O)N2CCN(c3cccc(Cl)c3)CC2)o1	-19%	-10%
CCC(C)(C)n1c(=O)[nH]c2c(c1=O)CCC2	-16%	-6%
COc1ccc([C@H]2CC(=O)C=C(c3ccc(C)c(F)c3)C2)cc1	-2%	-12%
CCCCCOC(=O)Cn1c(=O)oc2ccccc21	-17%	-2%
CCn1c(=O)c(C(=O)NNS(=O)(=O)c2ccc(Br)cc2)c(O)c2ccccc21	i	-5%
O=C1C(=O)N(CCN2CCOCC2)C(c2ccccn2)/C1=C(/O)c1ccccc1 (configuration not stated)	-9%	2%
C[C@]12CCC3C(CC[C@H]4C[C@@H](O)CC[C@]34C)C1CCC2=O (some centres not stated)	7%	-7%
CN(CC(=O)Nc1ccccc1C(F)(F)F)C(=O)COc1ncnc2sccc12	-13%	-6%

New compounds follow.
SMILES	Vaccinia mCherry	Vaccinia Venus
Cc1ccc(NC(=O)CN2C(=O)c3cccnc3Sc3ccccc32)cc1C	-8%[7.34 µM]	-1%[7.34 µM]
COc1ccc(C(=O)c2ccc(Cl)cc2)c2ccccc12	nt	?
O=C(Cn1cnc2c(NCc3ccccc3)ncnc21)NCc1ccc2c(c1)OCO2	-27%	?
CC(C)(C)c1ccc(C(=O)N/C(N)=N/c2nc3ccccc3o2)cc1	nt	0%
CC(C)N(CC#CC(O)(c1ccccc1)c1ccccc1)CCO	-10%	-12%
COc1ccc(/C=C/C(=O)N(CCC(N)=O)c2ccccc2)cc1S(=O)(=O)N1CCOCC1	-11%	-3%
Cc1cc2n(n1)CCCN2C(=O)Nc1ccccc1F	-14%	-4%
Oc1c(C(c2ccccc2)N2CCC3(CC2)OCCO3)sc2nc(-c3ccco3)nn12 (configuration not stated)	-11%	-6%
CCOC(=O)C(C)Sc1nc(-c2ccccn2)ncc1OC (configuration not stated)	?	-13%
CCn1c(=O)c(CCC(=O)NCCN2CCOCC2)c(C)c2c(C)nn(-c3ccccc3)c21	-13%	-26%

In another format: results already given.
canonical_smiles | Vaccinia mCherry | Vaccinia Venus
Oc1c(C(c2ccccc2)N2CCC3(CC2)OCCO3)sc2nc(-c3ccco3)nn12 (configuration not stated) | -11% | -6%
CC(C)N(CC#CC(O)(c1ccccc1)c1ccccc1)CCO | -10% | -12%
Cc1cc2n(n1)CCCN2C(=O)Nc1ccccc1F | -14% | -4%
COc1ccc(C(=O)c2ccc(Cl)cc2)c2ccccc12 | nt | ?
Cc1ccc(NC(=O)CN2C(=O)c3cccnc3Sc3ccccc32)cc1C | -8%[7.34 µM] | -1%[7.34 µM]
CCOC(=O)C(C)Sc1nc(-c2ccccn2)ncc1OC (configuration not stated) | ? | -13%
COc1ccc(/C=C/C(=O)N(CCC(N)=O)c2ccccc2)cc1S(=O)(=O)N1CCOCC1 | -11% | -3%

Outcome played no part in choosing rows. Share with any hit: about 0.87%.
